gsp agonist = qHTS for Agonist of gsp, the Etiologic Mutation Responsible for Fibrous Dysplasia/McCune-Albright Syndrome: qHTS; gsp mutant cells, cAMP HTRF, 30 min; control for the full effect not named in the record; Potency, µM (top dose mostly 76.9 µM), for the others: at the highest dose activation (cAMP increase), usual class: activators; 340,000 compounds, 0.13% hits; AID 624287, 2012; active = well fitted activation curve with a large enough effect; inconclusive = small, poorly fitted or top-dose-only effect, or another doubt; inactive = no such curve, though single readings can be large or run the other way; cell line not stated here;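 also: phosphodiesterase inhibitor Ro 20-1724 added with compounds to block cAMP breakdown; potency is read from the fitted curve at half-maximal effect; nearly all actives have a fitted effect of over 60% in size; about a fifth of the inactives were tested at one dose only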
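Cells stably selected in G418 were plated at 2000/well, grown 16-24 hr, then given compounds in DMSO with the PDE inhibitor […] (300 uM solution added) for 30 min at 37C; cAMP was read by HTRF.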
TRPV1 PAM = HTS Assay for Compounds that Act as Potentiators of the Vanilloid Receptor 1; TRPV1-expressing cells, Fluo-8 calcium influx, capsaicin EC20 potentiation; host cell line not named in the record; control for the full effect not named in the record; Transient receptor potential cation channel subfamily V member 1 (Homo sapiens), Q8NER1; AID 540277, 2011; 320,000 compounds, 0.02% hits; potentiation, % at 8.33 µM; active means potentiation above 80%; inconclusive means 30% to 80%; inactive means below 30%; also: 0% is about no effect
Target sequence (Q8NER1 whole entry, looked up): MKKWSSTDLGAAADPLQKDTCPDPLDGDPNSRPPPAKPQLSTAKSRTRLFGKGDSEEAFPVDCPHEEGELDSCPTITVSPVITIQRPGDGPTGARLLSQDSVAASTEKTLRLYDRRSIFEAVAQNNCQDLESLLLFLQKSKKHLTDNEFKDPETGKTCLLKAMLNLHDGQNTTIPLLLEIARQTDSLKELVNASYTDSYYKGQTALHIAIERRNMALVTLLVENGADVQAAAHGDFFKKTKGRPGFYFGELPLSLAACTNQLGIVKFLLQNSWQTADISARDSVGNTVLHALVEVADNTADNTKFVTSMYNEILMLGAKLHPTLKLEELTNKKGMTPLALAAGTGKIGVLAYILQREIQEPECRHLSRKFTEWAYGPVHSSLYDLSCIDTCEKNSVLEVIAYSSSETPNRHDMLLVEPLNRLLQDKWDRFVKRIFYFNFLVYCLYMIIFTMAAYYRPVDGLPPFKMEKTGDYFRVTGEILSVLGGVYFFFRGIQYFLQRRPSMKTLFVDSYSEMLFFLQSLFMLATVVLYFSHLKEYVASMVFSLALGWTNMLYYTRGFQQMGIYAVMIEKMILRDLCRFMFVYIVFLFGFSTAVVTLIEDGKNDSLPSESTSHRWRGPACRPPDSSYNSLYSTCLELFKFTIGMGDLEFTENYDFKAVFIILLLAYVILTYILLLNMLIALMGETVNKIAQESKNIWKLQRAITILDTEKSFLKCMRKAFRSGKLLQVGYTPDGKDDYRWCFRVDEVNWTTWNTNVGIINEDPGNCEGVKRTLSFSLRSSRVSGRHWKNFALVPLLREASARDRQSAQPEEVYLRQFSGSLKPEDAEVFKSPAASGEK
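TRPV1-expressing cells were cultured overnight at 35.5C and loaded with Fluo-8 calcium dye for 40 to 90 min at room temperature. After a 10 s baseline, compound was added and calcium influx was read kinetically for 3 min (ex 480/em 520 nm).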
TRPML1 inh = qHTS for Inhibitors of the Human Mucolipin Transient Receptor Potential 1 (TRPML1) | TRPML1-inducible cells, Ca2+ dye fluorescence, FDSS; stronger effect = lower value; inhibition of EC80 agonist-evoked calcium signal | 390,000 compounds, 0.02% hits | activity change, negative = inhibition, % (test concentration not listed); in the data active means activity change below about -50%; inconclusive means about -30% to -50%; inactive means above about -30%;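 also: stimulus is agonist 54-4 at its EC80 concentration; % is scaled to controls: 0 for no effect and ±100 for the full control effect; compound concentration not given in the record; the text of the record puts the active cut at -80%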
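TRPML1-DL cells, Tet-induced overnight (~16 h, 37 °C) at 1,500 cells/well, were loaded with Ca8 no-wash dye plus quencher for 45-90 min at room temperature. Compounds were pinned during FDSS kinetic reading; agonist 54-4 at EC80 (4 uM final) then added.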
Menin-MLL FL inh = qHTS Assay for Inhibitors Targeting the Menin-MLL Interaction in MLL Related Leukemias: Competition With Fluorescein Labeled MLL-derived Peptide | AID 1766, 2009 | Fluorescence polarization, fluorescein-MLL peptide displacement from menin | 290,000 tested, under 10 active | FP activity change, % at 61.4 µM; inconclusive = falling polarisation curve, or a change in total fluorescence; inactive = total fluorescence flat and polarisation flat or rising; no compound was filed as active; the % refers to the polarisation; negative = inhibition;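 also: % of control where 0% means no effect; inhibitors lower the polarisation; unlabelled MLL peptide was the positive control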
ClpP mod = qHTS Assay for Activators of ClpP. ATP-dependent Clp protease proteolytic subunit (Bacillus subtilis (strain 168)), P80244. purified B. subtilis ClpP, FRET peptide cleavage, 20 min. Potency, µM (top dose mostly 57.5 µM), inactives show at the top dose activity change, negative = active. 340,000 compounds, 1.9% hits; active = well fitted falling curve with a large enough effect; inconclusive = small, poorly fitted or top-dose-only effect; inactive = no such curve, though single readings can be large or run the other way; also: potency is read from the fitted curve at half-maximal effect; the source files actives as falling curves though it sought activators and does not explain the sign; nearly all actives have a fitted effect of over 65% in size; many hits overshoot -100%
Target sequence (P80244 whole entry, looked up): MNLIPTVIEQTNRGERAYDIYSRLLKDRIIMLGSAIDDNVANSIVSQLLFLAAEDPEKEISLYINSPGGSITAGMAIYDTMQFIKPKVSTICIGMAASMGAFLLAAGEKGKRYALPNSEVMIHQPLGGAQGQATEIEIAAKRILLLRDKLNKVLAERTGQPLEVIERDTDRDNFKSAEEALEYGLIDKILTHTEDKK
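ClpP 10 microg/mL final, pH 8 Tris/KCl buffer with BSA, glycerol, Tween-20; compound pinned in; FRET-FV substrate; RT 20 min; Ex320/Em430; ΔFRET vs ADEP 5.8 microM, DMSO, no enzyme.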
Sfp PPTase inh = qHTS Assay for Inhibitors of Bacillus subtilis Sfp phosphopantetheinyl transferase (PPTase) | 4'-phosphopantetheinyl transferase ffp (Bacillus subtilis), Q9F4F7 | Biochemical Sfp PPTase activity, qHTS | Potency, µM, for inactives: max response, negative = inhibition, usual class: inhibitors | 310,000 compounds, 3.5% hits | AID 1490, 2009; active = well fitted inhibition curve with a large enough effect; inconclusive = small, poorly fitted or top-dose-only effect, or another doubt; inactive = no such curve, though single readings can be large or run the other way;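 also: the enzyme is Sfp with the accession as filed and its product quenches rhodamine fluorescence; potency is read from the fitted curve at half-maximal effect; 0% = enzyme reaction without inhibitor and -100% = no enzyme wells; top concentration of the series not given in the record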
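Compounds were incubated with enzyme (final 15 nM) for 15 min at room temperature before substrate addition started the reaction. Fluorescence at 525 nm excitation, 598 nm emission was recorded immediately and after 30 minutes.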
gsp antagonist = qHTS for Antagonists of gsp, the Etiologic Mutation Responsible for Fibrous Dysplasia/McCune-Albright Syndrome: qHTS; 340,000 compounds, 0.4% hits; Potency, µM (top dose mostly 76.9 µM), for the others: at the top dose activity change, negative = inhibition, most hits filed as inhibitors; AID 624288, 2012; gsp-mutant cells, cAMP HTRF, 30 min; control for the full effect not named in the record; active = falling curve of any shape with a large fitted effect; inconclusive = falling curve, mostly with a smaller effect; inactive = flat or rising curve; cell line not stated here;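 also: intracellular cAMP measured with PDE inhibitor Ro 20-1724 present during compound exposure; potency is read from the fitted curve at half-maximal effect; % is scaled to controls: 0 for no effect and ±100 for the full control effect; nearly all actives have a fitted effect of over 65% in size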
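Cells in G418 medium, seeded 16-24 h, 37C; buffer exchange to DPBS + 1 mM CaCl2, 0.5 mM MgCl2, 0.05% BSA; cpds in DMSO + […] (300 uM stock), 30 min 37C; HTRF cAMP detection.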
Numbers without * were called inactive; ? = inconclusive; . = no result given; & = joins results of further samples; [ ] = another dose, or the depositor's remark.

SMILES | gsp agonist | TRPV1 PAM | TRPML1 inh | Menin-MLL FL inh | ClpP mod | Sfp PPTase inh | gsp antagonist
COc1cccc(C(=O)NC2CCCc3ccccc32)c1OC (stereo not given) | 12%[15.4 µM] | 25 | 40 | -0.9 | . | 21% | -34%
O=C(COC(=O)Cc1ccc(S(=O)(=O)N2CCOCC2)s1)Nc1ccccc1 | ? | . | -16 | . | . | . | -14%
COc1ccc(Cc2nnc(NC(=O)c3cccc(C)c3)s2)cc1 | 26%[15.4 µM] | -8 | 3 | -0.9 | . | -6% | .
CCOC(=O)C1=C(C)N(Cc2ccccc2)C(=O)NC1c1ccc(OC)cc1 (stereo not given) | 3% | -2 | -2 | 2.6 | -0.1% | -8% | 8%
COc1ccc(CN(C)C(=O)Cn2cnc3c(OCc4ccccc4)ncnc32)cc1OC | . | . | 22 | . | 0.6% | . | -9%
Cc1cccc(C2c3[nH]c4ccccc4c3CCN2C(=O)c2cc3c([nH]c2=O)CCCC3)n1 (stereo not given) | -33%[inhibitor] | 2 | -30 | -0.2 | -2.4% | 2% | -4%
CC(=O)Nc1ccc(S(=O)(=O)N2CCN(c3ccc([N+](=O)[O-])c(NCCN4CCOCC4)c3)CC2)cc1 | -47%[inhibitor] | -1 | 14 | -0.4 | -7.2% | -1% | ?
COc1cccc2c3cccc(OC)c3c3[nH]cnc3c12 | 8% | . | -8 | . | ? | . | 13%
O=C(CCS(=O)(=O)c1ccc(Br)cc1)N1CCN(c2ccccc2F)CC1 | -20% | -11 | -2 | 0.7 | -3.0% | 11% | -2%
OCCOCCNc1ncnc2c1cnn2-c1ccc(Cl)cc1 | -39%[inhibitor] | -11 | -15 | 3.0 | 32µM* | 12% | -1%
CC12CCC(C(=O)NCc3ccc4c(c3)OCO4)(CC1=O)C2(C)C (stereo not given) | -47%[inhibitor] | -20 | -7 | 2.7 | -2.8% | 11% | -10%
C/C(=N\NC(=O)COc1ccc(C)cc1C(C)C)c1cc2ccccc2o1 | -3% | 3 | 2 | 13 | . | 3% | 6%
Cc1[nH]c2ccccc2c1C(=O)CSC(=S)N(C)C1CCCCC1 | -17% | 1 | 3 | . | -8.3% | 23% | 5%
O=S(=O)(Nc1cc(Sc2ncn[nH]2)c(O)c2ccccc12)c1ccccc1 | -15% | 11 | -12 | -2.4 | . | 8.9µM* | ?
CCOc1ccccc1NC(=O)C1CCCN1C(=O)OCc1ccccc1 (stereo not given) | -39%[inhibitor] | 9 | 13 | 0.4 | -0.5% | 12% | -2%
CN(CC(=O)Nc1c(Cl)cccc1Cl)C(=O)c1n[nH]c2ccccc12 | ? | 4 | -6 | . | -0.4% | . | 6%
N#Cc1nccc2ccc(OCc3ccc(Br)cc3)cc12 | 32% | . | -8 | . | -2.9% | . | .
O=C(NC(=S)Nc1ccc(-c2ccc(CO)o2)cc1)c1cccs1 | -12%[15.4 µM] | -63 | -2 | 22 | . | 8.9µM* | ?
Cc1ccc(CN(C)C(=O)c2cccc(S(=O)(=O)N3CCCC3)c2)o1 | ? | . | 0 | . | . | . | -3%
COc1ccccc1OCC(=O)NNC(=O)c1cccs1 | -30%[inhibitor] | 3 | -1 | 0.6 | 2.7% | 1% | 7%
Cc1cc(NC(=O)C2CC=CCC2C(=O)O)no1 (stereo not given) | 16% | 0 | -6 | -0.5 | 0.7% | 4% | -1%
CCOC(=O)[C@H]1[C@H]2COc3ccc(C)cc3[C@@H]2N2C(=O)CN(Cc3ccc(C)cc3)C(=O)[C@@]12C | -9% | -11 | 47 | . | 0.3% | . | -9%
Cc1ccc(NS(=O)(=O)c2ccc(Cl)c(NC(=S)NC(=O)C3CCCCC3)c2)cc1Cl | 0% | 4 | -2 | 7.9 | -1.6% | 14% | -4%
COc1ccc(-c2nc(C)sc2CC(=O)O)cc1 | -14% | 0 | 2 | 2.0 | -1.4% | 19% | 4%
Cc1ccc(COC(=O)CN2C(=O)NC3(CCCC3)C2=O)cc1 | 16% | -10 | -4 | . | -2.0% | . | 5%
Cc1ccc2cc(CN(CCc3ccccc3)C(=S)NCCCN(C)C)c(=O)[nH]c2c1 | 15% | 1 | -14 | -0.2 | . | -4% | 4%
c1ccc(CN2CCN(c3nc(N4CCOCC4)c4ccccc4n3)CC2)cc1 | 10% | . | 9 | . | -26% | . | -3%
CCOn1c(=O)c(-c2cc3ccccc3o2)[n+]([O-])c2ccccc21 | 26% | -10 | 23 | -3.1 | -1.5% | 0% | -2%
CC1CCN(C(=S)NCCc2ccccc2)CC1 | 8% | -3 | 19 | -0.1 | -0.6% | 9% | 2%
CCOC(=O)C[C@H]1c2cc(F)ccc2S(=O)(=O)N1C(C)C | ? | . | -12 | . | 0.8%&-0.8% | . | 18%
COc1ccc([C@@H]2[C@@H]3C(=O)N(C(C)(C)C)C(=O)[C@@H]3[C@]3(CC(C)C)C(=O)N(c4ccc(C(F)(F)F)cc4)C(=O)N23)cc1 | ? | -7 | 0 | -3.3 | 0.9% | 8% | 8%
CCOC(=O)Nc1ccc(N2CCOCC2)c(S(=O)(=O)Nc2ccc(Cl)cc2)c1 | 25% | . | 7 | . | . | . | -12%
COc1ccc(Br)cc1C1SCCN1S(C)(=O)=O (stereo not given) | 20% | -1 | 30 | 2.0 | -0.2% | -10% | -2%
CC(=O)c1cccc(OC(=O)c2cc(S(=O)(=O)N3CCOCC3)ccc2N2CCCC2)c1 | 0% | 12 | 6 | . | -1.8% | . | 18%
Cc1ccsc1/C=N/NC(=O)Cn1nc(C)c([N+](=O)[O-])c1C | -4%[15.4 µM] | . | -11 | 1.0 | . | 2% | -2%
O=C(NCCCNC(=O)c1ccc(F)cc1)c1ccc(F)cc1 | -14% | -9 | 5 | -1.3 | -0.2% | 4% | -2%
CCOc1ccc(-c2cc(C(=O)NCCCn3ccnc3)c3cc(Br)ccc3n2)cc1 | 32%[15.4 µM] | -10 | 1 | . | 0.0% | 1% | -7%
O=C(/C=C/Nc1ccccc1OC(F)(F)F)C(F)(F)F | 12% | -13 | -3 | 0.9 | 4.4% | 9% | 1%
Cc1sc2nc(CN3CCCC3)nc(Cl)c2c1C | 1%[15.4 µM] | -3 | 31 | 4.8 | -2.3% | -7% | -3%
COc1cc(/C=C2\SC(=O)NC2=O)ccc1Oc1ccc([N+](=O)[O-])cn1 | 7%[15.4 µM] | 14 | 19 | -2.5 | . | 79µM* | -29%
O=C(Oc1cccnc1)c1ccc([N+](=O)[O-])cc1Cl | 19% | 7 | 8 | -2.9 | 2.8% | 2% | 9%
CCOC(=O)C(Cc1ccc(O)cc1)NC(=O)CNC(=O)C1CCCN1C(=O)OC(C)(C)C (stereo not given) | -12% | 2 | 10 | -6.6 | . | 14% | 7%
COc1ccc(CN2CCCCCC2)cc1OC | -10%[15.4 µM] | . | 5 | . | . | . | 4%
C=CCn1c(=O)/c(=C2/Sc3ccccc3N2CC)s/c1=C1/C(=O)NN=C1C | . | -5 | . | ? | . | ? | .
Cc1ccc(C(=O)N2CCN(S(=O)(=O)c3ccc(C(C)C)cc3)CC2)s1 | 6% | -10 | 22 | . | -3.2% | . | -12%
CCOc1ccc(S(=O)(=O)N(C)C)cc1-c1nc2c(C(C)(C)C)nn(C)c2c(=O)[nH]1 | 9% | 0 | -15 | 1.5 | ? | 20% | -3%
CC(C)Sc1nc2c(c(=O)n1C)SC(C)C2 (stereo not given) | -53%[inhibitor] | -2 | 6 | -2.0 | -0.2% | 9% | -11%
Cc1nc(N2CCN(Cc3ccc4c(c3)OCO4)CC2)nc2c1C(=O)CC(c1ccco1)C2 (stereo not given) | -24% | 7 | -8 | 2.9 | -10% | -6% | -14%
CCN1C(=O)c2ccccc2S(=O)c2ccc(C(=O)N3CCCC3)cc21 (stereo not given) | -3% | 2 | 10 | 4.6 | -0.5% | 10% | 0%
Cc1cc(C)n(-c2cc(C(=O)O)cc(C(=O)O)c2)n1 | 22% | -3 | 6 | -0.6 | -0.8% | 9% | 6%
COC(=O)CNC(=O)c1cc(-c2ccncc2)nc2ccc(C)cc12 | -16% | 17 | -3 | . | 3.9% | -1% | 3%
Nc1ncnn1Cc1ccccc1 | 0% | . | 5 | . | 0.4% | . | .
Cc1cccc(CSc2ncnc3nc[nH]c23)c1 | -1% | -33 | 27 | -1.2 | -0.7% | 21% | 2%
O=C1[C@H]2[C@@H](c3ccccc3)N[C@]3(CCCN(CC4CCCCC4)C3=O)[C@H]2C(=O)N1Cc1ccccc1 | ? | . | -6 | . | -1.6% | . | .
COC(C/C=C/[C@@H](O)[C@H](C)OCc1ccccc1)OC | . | . | -9 | . | 0.8% | . | 7%
Cc1cc(C)nc(NS(=O)(=O)c2ccc(NC(=O)c3cccs3)cc2)n1 | 22% | -1 | -13 | -0.1 | -5.9% | 15% | 6%
CCCCn1c(SCC(=O)NC(=O)Cc2ccccc2)nc2ccccc2c1=O | 12% | -5 | 20 | . | -1.2% | . | 10%
CCN(CC)CCCNC(=O)C1c2ccccc2C(=O)N(C)C1c1ccc(OC)cc1 (stereo not given) | -20% | -1 | -12 | 0.3 | 0.3% | 2% | 15%
O=C(Nc1ccccc1Oc1cccnc1)C1CCCN(C/C=C/c2ccccc2)C1 (stereo not given) | 15% | 0 | -10 | . | -3.0% | 0% | 1%
O=C(CCN1C(=O)[C@@H]2Cc3ccccc3CN2C1=O)NCc1ccc(Cl)cc1 | -50%[inhibitor] | -3 | 8 | . | -1.2% | 12% | -13%

Random draw from the library (roughly 4.9% active in at least one column).
